High-throughput results deposited in PubChem BioAssay by National Center for Advancing Translational Sciences (NCATS).
Cruzain Triton = blocks cruzain activity in presence of Triton detergent. purified cruzain, Z-FR-AMC fluorescence, 0.01% Triton. Potency, µM, inactives show max response, negative = inhibition, usual class: inhibitors. P25779. AID 1478. 200,000 tested, 0.43% active;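 also: plate controls were neutral wells for no effect and buffer without enzyme for full effect; nearly all actives have a fitted effect of over 40% in size; top concentration of the series not given in the record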
Target sequence (P25779 123-467 limits assumed): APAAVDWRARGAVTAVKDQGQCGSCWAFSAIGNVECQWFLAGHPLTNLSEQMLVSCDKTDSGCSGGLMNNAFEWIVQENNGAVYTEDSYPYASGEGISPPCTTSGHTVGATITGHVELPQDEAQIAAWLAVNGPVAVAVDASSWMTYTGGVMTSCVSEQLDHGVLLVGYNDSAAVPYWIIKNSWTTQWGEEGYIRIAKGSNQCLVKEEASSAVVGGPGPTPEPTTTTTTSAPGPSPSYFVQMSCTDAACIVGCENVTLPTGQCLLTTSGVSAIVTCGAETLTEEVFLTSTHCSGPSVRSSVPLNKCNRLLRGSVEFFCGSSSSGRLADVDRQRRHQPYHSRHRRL
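Detergent-containing arm of a paired screen for aggregation-based inhibition: 0.01% Triton X-100 present. Cruzain at 1.5 nM cleaved 2 uM Z-FR-AMC at pH 5.5 with 5 mM DTT; AMC fluorescence gain over 60 s measured activity.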
SARS PLP yeast = blocks SARS-CoV papain-like protease in a yeast assay; S. cerevisiae expressing SARS-CoV PLpro, growth rescue; control for the full effect not named in the record; 330,000 tested, 0.19% active; Potency, µM (top dose mostly 32.9 µM), for inactives: top-dose activity, positive = growth rescue; active means well fitted rising curve with a large enough effect; inconclusive means small, poorly fitted or top-dose-only effect; inactive means no such curve, though single readings can be large or run the other way; also: 0% is about no effect; nearly all actives have a fitted effect of over 55% in size; growth read by luminescence after 48 h
Cruzain inh noDet = inhibitors of Trypanosoma cruzi cruzain without detergent | P25779 | purified cruzain, Z-FR-AMC fluorescence, no detergent | Potency, µM, without a hit: max response, negative = inhibition, hits mostly inhibitors | 200,000 tested, 2.3% active;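 also: plate controls were enzyme without inhibitor for no effect and buffer without enzyme for full effect; nearly all actives have a fitted effect of over 40% in size; top concentration of the series not given in the record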
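Purified cruzain at 1.5 nM, pre-incubated 15 min with compound at room temperature in 100 mM sodium acetate pH 5.5, 5 mM DTT, 0.00005% Triton X-100. Reaction started with 2 uM Z-FR-AMC; AMC fluorescence increase over 60 s gives rate.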
NS1 function inh = inhibitors of influenza NS1 protein function; S. cerevisiae slowed by influenza A NS1, growth recovery by OD600; 270,000 tested, 0.4% active; AID 2326; Potency, µM (series often up to 46.1 µM), for the others: at the highest dose activity, positive = more growth; active means well fitted rising curve with a large enough effect; inconclusive means small, poorly fitted or top-dose-only effect; inactive means no such curve, though single readings can be large or run the other way; also: nearly all actives have a fitted effect of over 50% in size
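Recovery from NS1-induced slow growth read by OD600 in budding yeast switched to galactose assay medium (pH 6.0, -URA) at 1:100 dilution. Compound 23 nl per well; the matching strain lacking NS1 serves as control.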
Marburg entry inh = Marburg virus entry inhibition | Potency, µM (highest dose often 37.8 µM), inactives show at the highest dose activity change, negative = inhibition, hits mostly inhibitors | 300,000 tested, 1.8% active | Marburg virus pseudotyped entry inhibition, cell reporter; control for the full effect not named in the record; about a third of the inactives were read at about 46 µM; active = well fitted inhibition curve with a large enough effect; inconclusive = small, poorly fitted or top-dose-only effect, or effect the other way; inactive = flat fitted curve, though single readings scatter; tested in HEK293 cells; about a fifth of its hits are not listed in these tables; also: % is scaled to controls: 0 for no effect and ±100 for the full control effect; luciferase read-out
Lassa entry inh = Lassa virus entry inhibition | Lassa virus pseudotype entry inhibition, cell reporter; control for the full effect not named in the record | Potency, µM (top dose mostly 37.9 µM), for the others: top-dose activity change, negative = inhibition, actives largely listed as inhibitors | 300,000 tested, 1.2% active; active means well fitted inhibition curve with a large enough effect; inconclusive means small, poorly fitted or top-dose-only effect, or effect the other way; inactive means flat fitted curve, though single readings scatter; tested in HEK293 cells; also: % is scaled to controls: 0 for no effect and ±100 for the full control effect; nearly all actives have a fitted effect of over 50% in size; luciferase read-out
RE007 growth inh = less growth of the S. pombe RE007 Vpr strain; Potency, µM (highest dose often 92.2 µM), for inactives: top-dose activity change, negative = less growth; S. pombe RE007 Vpr strain, BacTiter-Glo ATP luminescence, 24 h; control for the full effect not named in the record; 360,000 tested, 0.21% active; active = well fitted falling curve with a large enough effect; inconclusive = small, poorly fitted or top-dose-only effect; inactive = no such curve, though single readings can be large or run the other way;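 also: % is scaled to controls: 0 for no effect and ±100 for the full control effect; nearly all actives have a fitted effect of over 50% in size; the assay follows cell death caused by Vpr and the record does not say whether a fall means rescue or toxicity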
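Fission yeast strain RE007, carrying one chromosomally integrated HIV-1 vpr copy, was seeded at OD 0.01 in PMG+AL medium with 23 nL pinned compound. After 24 h at 30 °C and 99% humidity, viability was read by BacTiter-Glo luminescence.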
StopGo reporter = lowers the luciferase signal of an FMDV 2A StopGo reporter. human cells with a luciferase reporter of 2A StopGo recoding; control for the full effect not named in the record. Potency, µM (top dose mostly 57.9 µM), for the others: at the highest dose signal change, negative = less light. 410,000 tested, 1.2% active; active = well fitted falling curve with a large enough effect; inconclusive = small, poorly fitted or top-dose-only effect; inactive = no such curve, though single readings can be large or run the other way; tested in HEK293T cells; also: % is scaled to controls: 0 for no effect and ±100 for the full control effect; nearly all actives have a fitted effect of over 45% in size; luciferase light after 4 h
Numbers without * were called inactive; ? = inconclusive; . = not tested or not shown; [ ] = dose if it differs, or a comment. Unless noted, calls follow the shape of the dose curve; as a rule, active = well fitted curve in the direction sought with a large enough effect; inconclusive = small, poorly fitted or top-dose-only effect, or another doubt; inactive = no such curve, though single readings can be large; an effect the other way counts as inactive or inconclusive. Potency is read from the fitted curve at half-maximal effect.

SMILES	Cruzain Triton	SARS PLP yeast	Cruzain inh noDet	NS1 function inh	Marburg entry inh	Lassa entry inh	RE007 growth inh	StopGo reporter
O=C(N/N=C\c1ccc(-c2ccccc2[N+](=O)[O-])o1)C1COc2ccccc2O1 (configuration not stated)	-11%	-57%	?	9%	?	1%	.	-14%
Cn1c(=O)c2cc(NC(=O)c3ccccc3Cl)c(=O)oc2n(C)c1=O	-17%	2%	-24%	-43%	8%	?	-6%	.
CN(C)CCCN(C(=O)c1ccc2ccccc2c1)c1nc2cc3c(cc2s1)OCO3	.	-3%	.	-4%	?	8%[46.1 µM]	4%	-9%
CCc1cccc(CC)c1-n1nnc2c(sc3nc(C)cc(C)c32)c1=O	3.1%	.	3%	.	2%[46.1 µM]	9%[46.1 µM]	.	?
NC(=O)c1ccsc1NC(=O)CSc1n[nH]c(N)n1	.	6%	.	.	?	13%	-16%	30%
CC(=O)c1cccc(NC(=O)N2CCCC2C(=O)Nc2ccc3c(c2)OCCO3)c1 (configuration not stated)	.	0%	.	-1%	26%[46.1 µM]	?	7%	4%
CCNC(=O)NC(=O)COC(=O)C1CSC2(C)CCC(=O)N12 (configuration not stated)	.	0%	.	.	3%[46.1 µM]	4%[46.1 µM]	-9%	1%
Cc1cc(C)cc(NS(=O)(=O)c2c(C)[nH]c(=O)[nH]c2=O)c1	.	-4%	.	-4%	?	?	21%	-6%
CCOC(=O)C1=NOC(CNc2ncc(C(F)(F)F)cc2Cl)C1 (configuration not stated)	.	-2%	.	-12%	0%[46.1 µM]	-21%	?	-3%
COC(=O)c1ccc(C(=O)NC2CCCc3c2cnn3-c2cc(F)cc(F)c2)nc1 (configuration not stated)	.	1%	.	-2%	?	-8%	-6%	-5%
COC(=O)c1ccc(NC(C)C(=O)OC)c([N+](=O)[O-])c1 (configuration not stated)	-3.0%	4%	12%	17%	18%	-3%	11%	9%
CN1CCN(CC(=O)N/N=C\c2c[nH]c3ccccc23)CC1	-0.3%	3%	4%	13%	29%	1%	.	.
CC1=C(C(=O)N2CCOCC2)C(c2ccc(OC(F)F)cc2)NC(=S)N1c1ccccc1 (configuration not stated)	.	-1%	.	-3%	-11%[46.1 µM]	?	-2%	12%
NS(=O)(=O)c1ccc(NC(=O)CN2C(=O)c3ccccc3C2=O)cc1	.	-6%	.	8%	1%[46.1 µM]	-2%[46.1 µM]	5%	2%
CN1CCN(C(=O)C2CCN(c3ncc(C(F)(F)F)cc3Cl)CC2)CC1	.	0%	.	1%	11%[46.1 µM]	?	1%	?
CC1CCN(C(=O)Nc2cccc(NC(=O)N3CCC(C)CC3)c2)CC1	2.4%	2%	18%	-11%	37%	0%	5%	35%[activator]
CC(C)C[C@H](N)c1nnc(SCc2ccc(Cl)cc2Cl)o1	-2.3%	.	1%	.	?	-20%[46.1 µM]	.	-26%
O=c1c(C(c2ccc(Cl)cc2)c2c(O)nc3n(c2=O)CCCS3)c(O)nc2n1CCCS2	.	0%	.	0%	12%[46.1 µM]	1%	2%	4%
C1CCN(Cc2nnnn2C2CCCC2)CC1	1.7%	-5%	5%	14%	0%	7%	18%	.
COc1ccccc1N=C1SC(C(=O)Nc2ccc(F)cc2)CC(=O)N1C (configuration not stated)	-2.3%	4%	?	-32%	?	4%	17%	?
CCOCCSc1nc2c(c(-c3cccs3)c1C#N)CC/C2=C/c1cccs1	-5.0%	-3%	16µM*	?	?	.	-12%	-6%
CN(C(=O)COC(=O)/C=C/c1cccs1)C1CCCCC1	.	8%	.	.	?	-5%[46.1 µM]	7%	24%
CC(C)Cn1c(SCC(=O)N2CCCCC2)nc2ccccc2c1=O	-3.6%	5%	9%	-11%	-30%	3%	-12%	?
CCOC(=O)C1=C(C)NC(=S)NC1c1ccc(OC(=O)c2ccco2)cc1 (configuration not stated)	-7.9%	-10%	?	4%	?	-1%	12%	8%

Eleven of the compounds above, bar-delimited:
canonical_smiles | Cruzain Triton | SARS PLP yeast | Cruzain inh noDet | NS1 function inh | Marburg entry inh | Lassa entry inh | RE007 growth inh | StopGo reporter
CN(C)CCCN(C(=O)c1ccc2ccccc2c1)c1nc2cc3c(cc2s1)OCO3 | . | -3% | . | -4% | ? | 8%[46.1 µM] | 4% | -9%
CCc1cccc(CC)c1-n1nnc2c(sc3nc(C)cc(C)c32)c1=O | 3.1% | . | 3% | . | 2%[46.1 µM] | 9%[46.1 µM] | . | ?
NC(=O)c1ccsc1NC(=O)CSc1n[nH]c(N)n1 | . | 6% | . | . | ? | 13% | -16% | 30%
CC(=O)c1cccc(NC(=O)N2CCCC2C(=O)Nc2ccc3c(c2)OCCO3)c1 (configuration not stated) | . | 0% | . | -1% | 26%[46.1 µM] | ? | 7% | 4%
CCNC(=O)NC(=O)COC(=O)C1CSC2(C)CCC(=O)N12 (configuration not stated) | . | 0% | . | . | 3%[46.1 µM] | 4%[46.1 µM] | -9% | 1%
Cc1cc(C)cc(NS(=O)(=O)c2c(C)[nH]c(=O)[nH]c2=O)c1 | . | -4% | . | -4% | ? | ? | 21% | -6%
CCOC(=O)C1=NOC(CNc2ncc(C(F)(F)F)cc2Cl)C1 (configuration not stated) | . | -2% | . | -12% | 0%[46.1 µM] | -21% | ? | -3%
COC(=O)c1ccc(C(=O)NC2CCCc3c2cnn3-c2cc(F)cc(F)c2)nc1 (configuration not stated) | . | 1% | . | -2% | ? | -8% | -6% | -5%
COC(=O)c1ccc(NC(C)C(=O)OC)c([N+](=O)[O-])c1 (configuration not stated) | -3.0% | 4% | 12% | 17% | 18% | -3% | 11% | 9%
CN1CCN(CC(=O)N/N=C\c2c[nH]c3ccccc23)CC1 | -0.3% | 3% | 4% | 13% | 29% | 1% | . | .
CC1=C(C(=O)N2CCOCC2)C(c2ccc(OC(F)F)cc2)NC(=S)N1c1ccccc1 (configuration not stated) | . | -1% | . | -3% | -11%[46.1 µM] | ? | -2% | 12%

Following part.
SMILES	Cruzain Triton	SARS PLP yeast	Cruzain inh noDet	NS1 function inh	Marburg entry inh	Lassa entry inh	RE007 growth inh	StopGo reporter
O=[N+]([O-])c1ccccc1Oc1ncccc1[N+](=O)[O-]	.	0%	.	.	-7%[46.1 µM]	3%[46.1 µM]	-2%	35%
Cc1ccc2c(c1)c1c(n2CC(O)Cn2nc(C)c(Br)c2C)CCCC1 (configuration not stated)	-6.0%	-45%	7%	6%	?	7%	-13%	-15%
CCN(C(=O)COc1nc(C)cc(C)c1C#N)c1ccccc1	.	-1%	.	-14%	-26%	-2%	-18%	-19%
COc1ccccc1NC(=O)CSc1nnc(CC(=O)Nc2cccc(C(F)(F)F)c2)n1C	-7.0%	4%	?	4%	9%	-5%	-3%	-10%
Cc1ccc(NS(=O)(=O)c2ccc(C(=O)N3CCOCC3)cc2)cc1	.	2%	.	.	-10%	0%	-16%	-19%
COc1cccc(NS(=O)(=O)Cc2ccccc2)c1	1.6%	-3%	-5%	-46%	?	-3%	-20%	36%[activator]
Cc1cccnc1NC(=O)c1ccc2c(c1)OCCO2	.	-3%	.	.	?	?	9%	34%[activator]
CC(=O)c1cccc(NC(=O)C2CC(=O)N(CCc3ccccc3)C2)c1 (configuration not stated)	.	-1%	.	-1%	?	-8%[46.1 µM]	-7%	-7%
C/C(=N\NC(=O)COc1cccc2ccccc12)c1cccs1	.	0%	.	-4%	-8%	-1%	2%	-12%
O=C(Nc1ccc(N2CCOCC2)cc1N1CCOCC1)c1ccc(F)cc1	.	1%	.	.	?	0%	14%	-21%
CC1CN(C(=O)c2cc(S(=O)(=O)N3CCCC3)ccc2Cl)CC(C)O1 (configuration not stated)	.	-2%	.	2%	.	.	0%	11%
C[C@H](NC(=O)c1[nH]cnc1C(=O)Nc1ccc(CNC(=O)OC(C)(C)C)cc1)C(=O)OCc1ccccc1	.	0%	.	-35%	.	.	2%	18µM*
CC(NCCS(=O)(=O)c1ccc(Cl)cc1)c1cccc(Cl)c1 (configuration not stated)	.	-4%	.	13%	-7%[46.1 µM]	.	-15%	-15%
COc1ccc2c(c1OC)C(=O)OC2Nc1ncc(Br)cc1Br (configuration not stated)	-1.9%	1%	1%	8%	-4%	-9%	-15%[3.69 µM]	-6%
O=C1CCCc2ccccc2N1Cc1ccccc1Cl	-1.9%	3%	-13%	-4%	?	3%	16%	0%
N#Cc1ccc2c(c1)nnn2-c1ccccc1	.	.	.	.	-1%[46.1 µM]	6%	-4%	15%
O=C1c2ccccc2C(=O)N1CCc1nc(-c2ccncc2)no1	5.1%	-3%	-13%	-17%	19%	1%	6%[3.69 µM]	?
CCc1noc(C)c1C(=O)Nc1ccc(F)c(F)c1	.	-3%	.	.	11%	-5%	2%	-2%
CC(=O)N1CCN(c2ccc(NC(=O)c3ccc4c(c3)OCCO4)cc2)CC1	-2.6%	8%	-3%	3%	20%	18%	11%	.
Cc1cc(C)cc(NC(=O)N(C)Cc2ccccc2)c1	.	0%	.	-2%	16%[46.1 µM]	-1%[46.1 µM]	0%	12%
COCC1CCN(C(=O)c2oc3c(F)cccc3c2C)C1 (configuration not stated)	.	-5%	.	-13%	.	.	-10%	32%[activator]
CCOC(=O)c1cc(-c2ccc(OC)c(S(=O)(=O)NC3CCCCC3)c2)on1	-7.2%	.	-10%	.	.	29%[46.1 µM]	.	69%[activator]
